Sfp PPTase inh: inhibitors of Bacillus subtilis Sfp phosphopantetheinyl transferase. Biochemical Sfp PPTase activity, qHTS. Potency, µM, inactives show max response, negative = inhibition, most hits filed as inhibitors. actives 3.5% (n = 310,000). AID 1490; active = well fitted inhibition curve with a large enough effect; inconclusive = small, poorly fitted or top-dose-only effect, or another doubt; inactive = no such curve, though single readings can be large or run the other way;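 also: the enzyme is Sfp with the accession as filed and its product quenches rhodamine fluorescence; potency is read from the fitted curve at half-maximal effect; 0% = enzyme reaction without inhibitor and -100% = no enzyme wells; top concentration of the series not given in the record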
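With Hepes-Na pH 7.6 buffer containing 10 mM MgCl2, Sfp (15 nM) modified BHQ-2-YbbR (12.5 uM) using rhodamine-CoA (5 uM). Two reads 30 minutes apart at 525/598 nm yielded each well's rate.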
gsp agonist: agonists of gsp mutant (McCune-Albright syndrome); gsp mutant cells, cAMP HTRF, 30 min; control for the full effect not named in the record; Potency, µM (highest dose often 76.9 µM), for inactives: at the top dose activation (cAMP increase), most hits filed as activators; actives 0.13% (n = 340,000); AID 624287; active = well fitted activation curve with a large enough effect; inconclusive = small, poorly fitted or top-dose-only effect, or another doubt; inactive = no such curve, though single readings can be large or run the other way; cell line not stated here;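 also: phosphodiesterase inhibitor Ro 20-1724 added with compounds to block cAMP breakdown; potency is read from the fitted curve at half-maximal effect; nearly all actives have a fitted effect of over 60% in size; about a fifth of the inactives were tested at one dose only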
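Cells stably selected in G418 were plated at 2000/well, grown 16-24 hr, then given compounds in DMSO with the PDE inhibitor […] (300 uM solution added) for 30 min at 37C; cAMP was read by HTRF.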
TRPV1 potentiator: human TRPV1 potentiation; Q8NER1; actives 0.02% (n = 320,000); TRPV1-expressing cells, Fluo-8 calcium influx, capsaicin EC20 potentiation; host cell line not named in the record; control for the full effect not named in the record; AID 540277; potentiation, % at 8.33 µM; active means potentiation above 80%; inconclusive means 30% to 80%; inactive means below 30%; also: 0% is about no effect
Target sequence (Q8NER1 whole entry, looked up): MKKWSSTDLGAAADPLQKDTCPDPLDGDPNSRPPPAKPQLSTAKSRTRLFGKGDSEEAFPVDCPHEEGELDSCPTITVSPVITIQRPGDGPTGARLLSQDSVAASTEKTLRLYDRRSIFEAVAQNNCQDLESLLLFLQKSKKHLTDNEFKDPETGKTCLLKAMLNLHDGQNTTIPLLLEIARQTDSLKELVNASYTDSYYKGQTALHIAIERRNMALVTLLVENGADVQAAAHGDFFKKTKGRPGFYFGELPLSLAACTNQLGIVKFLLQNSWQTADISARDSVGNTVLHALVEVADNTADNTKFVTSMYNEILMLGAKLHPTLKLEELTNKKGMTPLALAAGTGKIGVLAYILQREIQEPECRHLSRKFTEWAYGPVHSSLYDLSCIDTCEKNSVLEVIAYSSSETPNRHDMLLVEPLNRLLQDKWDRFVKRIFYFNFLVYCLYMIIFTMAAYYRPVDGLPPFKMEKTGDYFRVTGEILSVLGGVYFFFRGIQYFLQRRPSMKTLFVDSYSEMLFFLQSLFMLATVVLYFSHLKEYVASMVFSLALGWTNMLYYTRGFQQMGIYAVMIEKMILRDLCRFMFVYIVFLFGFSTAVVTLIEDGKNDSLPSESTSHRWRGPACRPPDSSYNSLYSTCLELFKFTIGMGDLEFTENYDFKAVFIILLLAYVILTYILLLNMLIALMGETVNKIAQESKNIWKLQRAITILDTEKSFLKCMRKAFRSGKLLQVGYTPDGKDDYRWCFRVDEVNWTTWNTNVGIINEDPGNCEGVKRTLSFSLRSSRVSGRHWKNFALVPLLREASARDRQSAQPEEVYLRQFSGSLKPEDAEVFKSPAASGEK
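Fluo-8 calcium influx in TRPV1-expressing cells, kinetic read (ex 480/em 520 nm). Compound added and read 3 min for agonist activity, followed by capsaicin at EC20 final and 2 min further read for enhancement.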
ClpP mod: qHTS Assay for Activators of ClpP; Potency, µM (series often up to 57.5 µM), for the others: top-dose activity change, negative = active; purified B. subtilis ClpP, FRET peptide cleavage, 20 min; AID 651965, 2013; actives 1.9% (n = 340,000); ATP-dependent Clp protease proteolytic subunit (Bacillus subtilis (strain 168)), P80244; active = well fitted falling curve with a large enough effect; inconclusive = small, poorly fitted or top-dose-only effect; inactive = no such curve, though single readings can be large or run the other way; also: potency is read from the fitted curve at half-maximal effect; the source files actives as falling curves though it sought activators and does not explain the sign; nearly all actives have a fitted effect of over 65% in size; many hits overshoot -100%
Target sequence (P80244 whole entry, looked up): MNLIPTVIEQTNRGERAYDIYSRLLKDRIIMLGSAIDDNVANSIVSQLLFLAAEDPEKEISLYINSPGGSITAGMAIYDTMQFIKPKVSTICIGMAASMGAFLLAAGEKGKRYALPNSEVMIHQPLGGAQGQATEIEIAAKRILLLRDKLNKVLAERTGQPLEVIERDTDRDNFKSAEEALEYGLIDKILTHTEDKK
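ClpP 10 microg/mL final, pH 8 Tris/KCl buffer with BSA, glycerol, Tween-20; compound pinned in; FRET-FV substrate; RT 20 min; Ex320/Em430; ΔFRET vs ADEP 5.8 microM, DMSO, no enzyme.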
gsp antag: gsp mutant antagonism. actives 0.4% (n = 340,000). gsp-mutant cells, cAMP HTRF, 30 min; control for the full effect not named in the record. AID 624288. Potency, µM (series often up to 76.9 µM), for inactives: at the highest dose activity change, negative = inhibition, hits mostly inhibitors; active = falling curve of any shape with a large fitted effect; inconclusive = falling curve, mostly with a smaller effect; inactive = flat or rising curve; cell line not stated here;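 also: intracellular cAMP measured with PDE inhibitor Ro 20-1724 present during compound exposure; potency is read from the fitted curve at half-maximal effect; % is scaled to controls: 0 for no effect and ±100 for the full control effect; nearly all actives have a fitted effect of over 65% in size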
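HTRF cAMP read-out (cAMP-d2 plus anti-cAMP antibody-K in lysis buffer, 30 min RT). Before lysis, cells are exposed to compounds with […] for 30 min at 37C in DPBS containing Ca/Mg, BSA and Tween 20.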
TRPML1 blocker: human mucolipin-1 channel inhibition | Q9GZU1 | TRPML1-inducible cells, Ca2+ dye fluorescence, FDSS; active compounds read low; inhibition of EC80 agonist-evoked calcium signal | activity change, negative = inhibition, % (concentration not given with the values) | actives 0.02% (n = 390,000); in the data active means activity change below about -50%; inconclusive means about -30% to -50%; inactive means above about -30%;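 also: stimulus is agonist 54-4 at its EC80 concentration; % is scaled to controls: 0 for no effect and ±100 for the full control effect; the text of the record puts the active cut at -80%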
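Calcium fluorescence in TRPML1-DL cells induced overnight with Tet: a 110 s read after compound pin addition, then a 110 s antagonist read after challenge with 54-4 at 4 uM final (EC80).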
Menin-MLL FL inh: menin-MLL binding inhibition, fluorescein peptide; Fluorescence polarization, fluorescein-MLL peptide displacement from menin; FP activity change, % at 61.4 µM; 290,000 tested, under 10 active; inconclusive = falling polarisation curve, or a change in total fluorescence; inactive = total fluorescence flat and polarisation flat or rising; no compound was filed as active; the % refers to the polarisation; negative = inhibition;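 also: % of control where 0% means no effect; inhibitors lower the polarisation; unlabelled MLL peptide was the positive control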
An asterisk follows results filed as active; ? = inconclusive; nt = no result given; [ ] = remark or other dose.

SMILES	Sfp PPTase inh	gsp agonist	TRPV1 potentiator	ClpP mod	gsp antag	TRPML1 blocker	Menin-MLL FL inh
O=C1CN(C(=O)CSc2nc3ccccc3c(=O)n2Cc2ccc(F)cc2)c2ccccc2N1	5%	-16%	13	nt	?	-1	0.0
COCCCNC(=O)C1CCN(S(=O)(=O)N(CC(C)C)CC(C)C)CC1	25%	23%	-29	-0.6%	-3%	2	1.8
Cc1cc(-n2c(C)cc(C(=O)COc3cccnc3[N+](=O)[O-])c2C)no1	nt	-27%	15	-3.5%	1%	-8	nt
CCOC(=O)C1=C(CC)Nc2ccccc2N/C1=N\S(=O)(=O)c1ccc(C(=O)OCC)cc1	20%	-8%	7	nt	-18%	12	-0.2
Cc1ccc(C)c(S(=O)(=O)N2CCCCC2CCNC(=O)C(=O)NCc2ccccc2)c1 (stereo not given)	nt	-6%	-6	-2.6%	-4%	2	nt
CCCC(=O)Nc1ccc(C(=O)N/N=C/c2cccnc2)cc1	-1%	-4%	-1	-1.0%	8%	-15	-3.0
CC(C)(C)OC(=O)NCCCCCNC(=O)c1nc[nH]c1C(=O)NCc1ccc(CNC(=O)OC(C)(C)C)cc1	nt	nt	nt	-12%	40µM*	0	nt
Cc1ccc(S(=O)(=O)N2CCC(=O)N(C(COCc3ccc(C(F)(F)F)cc3)Cc3ccccc3)CC2)cc1 (stereo not given)	16%	2%	1	-0.7%	-8%	-12	3.4
O=C(CN1C(=O)c2ccccc2S1(=O)=O)N1CCN(c2ccccc2)CC1	-4%	19%	9	0.8%	-12%	-9	5.0
COc1ccc(C(=O)C2CCN(C(=S)NCCc3ccccc3)CC2)cc1	23%	-18%	-17	0.2%	-2%	-3	0.6
CC(C)C(=O)N/N=C/c1ccc(OCc2ccccc2)cc1	8%	24%	nt	-3.5%	1%	40	3.5
CCC(=O)N1CCc2cc(S(=O)(=O)NC(C(=O)Nc3cccc(C)n3)C(C)C)ccc21 (stereo not given)	9%	-8%	10	0.8%	5%	-4	-2.9
CCn1c(SCC(=O)N(C)Cc2ccc(OC)c(F)c2)nc2cc(S(N)(=O)=O)ccc21	8%	5%[15.4 µM]	-1	-2.1%	4%	2	-2.8
CCOc1ccc(-c2nnc(SCC(=O)N3CCN(c4ccccc4)CC3)o2)cc1	3%	-75%[inhibitor]	1	3.0%	5%	-3	4.9
CNC(=O)c1[nH]cnc1C(=O)N[C@@H](Cc1ccccc1)C(=O)OCc1ccccc1	9%	?	20	2.4%	-3%	-14	4.6
CC(C)NC(=O)CSc1ccccc1C(=O)NNC(=O)Cn1ccc(C(F)(F)F)n1	nt	-7%	-18	-3.7%	10%	14	nt
Clc1ccc(Nc2ncn[nH]2)cc1	10%	-48%[inhibitor]	-1	-3.7%	-1%	-5	3.8
CC(=O)C1C(C)CC2C3CCC4CC(=O)CCC4(C)C3CCC21C (stereo not given)	nt	37%	nt	nt	-13%	63	nt
COc1ccc(NC(=O)N2CCCC(CNS(=O)(=O)c3cccs3)C2)c(C)c1 (stereo not given)	9%	1%[15.4 µM]	0	-1.6%	-11%	-3	0.4
CN(O)C(=S)c1ccccc1	nt	1%	nt	11µM*	10%	-2	nt
Cc1ccc(N=Cc2cc3c(cc2[N+](=O)[O-])OCO3)cc1[N+](=O)[O-]	nt	-10%	nt	-12%	-2%	31	nt
COc1ccccc1COn1c(=O)c(-c2ccco2)[n+]([O-])c2ccccc21	50µM*	-41%[inhibitor]	0	0.3%	-11%	-2	?
COc1ccccc1NC(=O)CSc1nccc(-c2ccco2)n1	nt	24%	26	0.2%	4%	5	nt
CCOc1cccc(NCc2cc3c(C(C)(C)C)nn(-c4ccccc4)c3[nH]c2=O)c1	25%	?	19	-1.7%	2%	-18	2.9
COc1cc(NC(=O)CC(C)n2ccnc2)cc(OC)c1 (stereo not given)	17%	24%	-8	nt	4%	-6	4.5
O=C(c1ccccc1/S(=N/S(=O)(=O)c1ccccc1)N1CCOCC1)N1CCOCC1 (stereo not given)	9%	1%	-8	-1.3%	12%	-2	1.8
Cc1cccc2nc3c(nc12)-c1ccccc1C3=O	13%	-13%[15.4 µM]	14	-0.8%	?	2	2.3
COc1ccc(NC(=O)CC2C(=O)N(c3cccc(OC)c3)C(=O)N2CCC(C)C)cc1 (stereo not given)	-10%	-5%	10	0.3%	-5%	-6	0.9
Cc1cc(C(=O)Cn2nnc3ccccc3c2=O)c(C)n1-c1c(C)n(C)n(-c2ccccc2)c1=O	16%	-4%	?	0.4%	-8%	-4	-0.9
Cc1ccc(N=Cc2nc(-c3ccc(C)cc3)oc2O)cc1	0%	-14%	-2	-4.7%	-4%	-19	?
Cc1cc2oc3ccc(NCCC4CCCN4C)cc3c(=O)c2cc1C (stereo not given)	nt	14%	nt	-2.2%	-6%	-2	nt
CCc1c(C)c2cc(Cl)c(O)c(CN3CCCC3)c2oc1=O	-6%	?	-7	nt	-4%	36	-9.1
N#Cc1cc(-c2ccccc2)nn1-c1ccccc1	18µM*	1%	-8	-29%	6%	38	-0.3
Cc1cccc(C)c1NC(=O)C(C)N1CCCC1 (stereo not given)	8%	-27%	-9	nt	2%	11	-4.3
COc1ccc(CNc2ccc(C)c(C)c2)cc1	12%	-13%[15.4 µM]	-2	nt	12%	11	1.7
O=S(=O)(/N=C(/c1ccc(Cl)cc1)N1CCOCC1)c1ccc(Cl)cc1	7%	13%	-20	3.8%	4%	-1	0.9
COc1ccc(C(Sc2ccccc2)c2ccccc2)cc1OC (stereo not given)	nt	nt	15	-0.9%	-9%	26	nt
NC(=O)CC(NC(=O)Cc1ccc(Br)cc1)c1ccc(NCCc2cccc(F)c2)c([N+](=O)[O-])c1 (stereo not given)	-19%	nt	-2	1.4%	-3%	2	6.0
O=c1oc(/C=C/c2ccc([N+](=O)[O-])s2)nc2ccccc12	9%	19%	8	-3.4%	-4%	nt	?
CC1CCN(S(=O)(=O)N2CCC(C(=O)N3CCC(N(C)CC4CCCO4)CC3)CC2)CC1 (stereo not given)	0%	5%	nt	-0.1%	11%	-11	3.1
N#Cc1c(-c2ccco2)nc(SCC(=O)Nc2cccc(Cl)c2)[nH]c1=O	50µM*	?	-7	-2.1%	22%	14	?
Cc1ccc(-n2nc3c(c2NC(=O)c2ccccc2)CS(=O)(=O)C3)cc1C	4%	-4%	-23	-0.2%	1%	4	nt
CC(=O)Nc1ccc(NC(=O)c2cc(=O)c3cc(C)c(C)cc3o2)cc1	7%	-16%	13	-0.4%	0%	-12	-4.6
N#Cc1c(-c2ccccc2)[nH]c(=O)[nH]c1=O	16%	11%[15.4 µM]	0	nt	1%	16	-3.3
COc1ccc(-c2cc(C(=O)OCC(=O)c3ccc(C)c([N+](=O)[O-])c3)c3ccccc3n2)cc1	2%	-4%[15.4 µM]	-5	41%	12%	-10	-1.7
COc1ccc(C2(C(=O)NCCc3ccccc3)CCCC2)cc1	26%	-23%	-8	1.3%	-8%	16	-0.7
CC(=O)Nc1ccc2nc(NC(=O)C(Cl)(Cl)Cl)sc2c1	13%	2%[15.4 µM]	?	0.6%	-2%	-2	-5.8
COc1ccc(F)cc1S(=O)(=O)N1CCN(c2ccccn2)CC1	-3%	1%[15.4 µM]	5	-0.6%	-7%	9	1.0
Cc1cc(C)c2cc(C#N)c(SCC(=O)Nc3cc(C)on3)nc2c1	16%	9%[15.4 µM]	1	nt	13%	15	nt
COC(=O)COc1ccc(S(=O)(=O)Nc2cc(OC)ccc2OC)cc1	-9%	nt	-8	nt	nt	nt	2.2
CCOC(=O)C1(Cc2ccccc2C)CCCN(Cc2cc(OC)c(O)c(OC)c2)C1 (stereo not given)	-13%	-1%[15.4 µM]	1	-1.1%	16%	-9	-1.4
Cc1ccc(Cl)c(NC(=O)COC(=O)C2CCC2)c1Cl	nt	-8%[15.4 µM]	-5	nt	12%	-7	nt
O=C(O)Cn1ccnc1	-7%	-7%[15.4 µM]	?	0.3%	-2%	-7	-1.1
CCOC(=O)/C(=N\Nc1cccc(Cl)c1)Sc1nnc(-c2ccc(OC)cc2)n1C	-4%	2%	?	-0.1%	-1%	7	1.5
CCOC(=O)N=Nc1c2ccccc2c2nc3no[nH]c3nc12	20%	18%[15.4 µM]	3	nt	?	-12	-3.9
Cc1cc(OC(C)C(N)=O)nc(-c2ccccc2)n1 (stereo not given)	4%	-4%[15.4 µM]	-6	nt	-8%	4	-1.4
CN(C(=O)CSc1nnnn1C)C1(C#N)CCCCC1	nt	-33%[inhibitor]	-8	0.0%	6%	20	nt
COc1cccc2c1-c1c(O)cccc1C2=O	1%	-27%	-1	2.4%	0%	5	?
NC1=NC(=O)CC(C(=O)Nc2cccc3ccccc23)S1 (stereo not given)	2%	0%	8	nt	0%	-2	-1.0
COc1ccccc1CN1CCN(Cc2cc(OC)c(OC)cc2OC)CC1	79µM*	-53%[inhibitor]	-14	-0.1%	-14%	nt	-0.1

Part of the list above, with values under each structure.
The line under a structure holds: Sfp PPTase inh, gsp agonist, TRPV1 potentiator, ClpP mod, gsp antag, TRPML1 blocker, Menin-MLL FL inh
- COc1ccccc1CN1CCN(Cc2cc(OC)c(OC)cc2OC)CC1
    79µM*, -53%[inhibitor], -14, -0.1%, -14%, nt, -0.1
- NC1=NC(=O)CC(C(=O)Nc2cccc3ccccc23)S1 (stereo not given)
    2%, 0%, 8, nt, 0%, -2, -1.0

(cont.)
SMILES	Sfp PPTase inh	gsp agonist	TRPV1 potentiator	ClpP mod	gsp antag	TRPML1 blocker	Menin-MLL FL inh
CCOC(=O)C1=C(N)OC(C)=C(C#N)C1c1ccco1 (stereo not given)	2%	?	-5	2.0%	-3%	-2	3.1
CCn1nc(NC(=O)C(C)C)c2cc3ccc(C)cc3nc21	-3%	-3%[15.4 µM]	?	nt	0%	14	-9.9
O=C(CN1C(=O)C(=O)N(CCC2=CCCCC2)C1=O)Nc1ccc(F)cc1F	nt	1%	nt	-0.1%	-2%	-13	nt
COc1ccc(/C=C\c2nc(=O)c3ccccc3o2)cc1	13%	12%[15.4 µM]	9	nt	-30%	19	2.0
C=CCc1cc(Cl)ccc1OCCn1ccnc1	-27%	-61%[inhibitor]	17	nt	0%	6	-6.6

Bioassay records deposited in PubChem BioAssay by National Center for Advancing Translational Sciences (NCATS).
